# ClpP mod = qHTS Assay for Activators of ClpP; 1.9% of 340,000 active; ATP-dependent Clp protease proteolytic subunit (Bacillus subtilis (strain 168)), P80244; Potency, µM (titrated, usually from 57.5 µM), without a hit: at the highest dose activity change, negative = active; purified B. subtilis ClpP, FRET peptide cleavage, 20 min; active = well fitted falling curve with a large enough effect; inconclusive = small, poorly fitted or top-dose-only effect; inactive = no such curve, though single readings can be large or run the other way; further: the source files actives as falling curves though it sought activators and does not explain the sign; nearly all actives have a fitted effect of over 65% in size; many hits overshoot -100%
# Target sequence (P80244 whole entry, looked up): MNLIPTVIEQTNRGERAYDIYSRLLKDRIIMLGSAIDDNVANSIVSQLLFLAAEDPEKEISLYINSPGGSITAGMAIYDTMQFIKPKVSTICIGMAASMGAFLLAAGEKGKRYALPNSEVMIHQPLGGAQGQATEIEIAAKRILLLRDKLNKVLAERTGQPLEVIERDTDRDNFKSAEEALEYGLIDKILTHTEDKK
#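 Purified B. subtilis ClpP, 10 microg/mL final in Tris/HCl pH8 with KCl, BSA, glycerol and Tween-20, cleaved an Abz/nitrotyrosine-quenched decapeptide. Fluorescence (ex 320, em 430) was read at 0 and 20 min at room temperature. Delta was normalized to 5.8 microM ADEP and DMSO/no-enzyme controls.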
# The depositor's hits bear a star; ? = inconclusive. Potency means the concentration at half of the fitted maximal effect. These rows are one share of the data. The share of hits here may be higher or lower than overall.
SMILES,ClpP mod
COc1ccc(S(=O)(=O)NCCc2sc(-c3cccc(C)c3)nc2C)cc1,4.2%
O=C(Nc1ccc(C(=O)OCc2cc(=O)n3nc(C4CC4)sc3n2)cc1)c1cccc(F)c1,-11%
COc1ccc(-n2c(C)nc3c(cnn3-c3ccc(C)c(C)c3)c2=O)cc1Cl,0.4%
O=S(=O)(NCCc1nnc2ccc(SCc3ccc(Cl)cc3Cl)nn12)c1ccccc1,0.4%
Cc1ccccc1CSc1ccc(-c2cccs2)nn1,-4.9%
COc1ccc(N2CC(NC(=O)C(=O)c3c[nH]c4ccccc34)CC2=O)cc1 (centres undefined),1.1%
Cc1ccccc1-c1noc(-c2ccccc2OCC(=O)Nc2cccc([N+](=O)[O-])c2)n1,-0.2%
N#Cc1ccc(-c2nc3c4ccccc4ccn3c2Cc2ccsc2)cc1,-31%
COc1ccc(-c2nc(SCC(=O)N3CCCCC3C)n[nH]2)cc1 (centres undefined),-1.1%
CCOC(=O)Cn1c(=O)n(C2CCCCC2)c2nc(-c3cccc(OC)c3)nc(C(N)=O)c21,-21%
Cc1ccc2onc(CC(=O)Nc3ccc(C(C)C)cc3)c2c1,0.3%
Cc1cc(C)c(NC(=O)CCN2C(=O)c3ccccc3Sc3ncccc32)c(C)c1,-1.3%
Clc1ccc(N2CCN(c3ncnc4c3cnn4-c3ccccc3)CC2)cc1Cl,-1.8%
COc1cc2c(NC3CCN(C)CC3)nc(N3CCCN(C)CC3)nc2cc1OCCCCC(N)=O,4.5%
Cc1ccccc1OCC(=O)NCC(=O)OCC(=O)c1ccc2c(c1)CCCC2,-4.8%
COc1ccc2oc(-c3ccc(C)c(NC(=O)c4ccc5c(c4)OCCO5)c3)nc2c1,3.7%
Cc1ccc(C(=O)Nc2nnc(S(=O)(=O)N3CCCc4ccccc43)s2)cc1,-1.7%
CN1CCN(c2ccc3c(c2)OC[C@H](Cc2ccccc2)NS3(=O)=O)CC1,-0.1%
CCOc1ccc(CNC(=O)CN2C(=O)CSc3c2c(C)nn3-c2ccccc2)cc1,1.1%
Cc1nc2nc(SCC(=O)N(Cc3ccccc3)C(C)C)nn2c(C)c1Cc1ccccc1Cl,-12%
CC(C)(C)C1CCc2c(sc(NC(=O)Cn3nnc(-c4ccccc4Cl)n3)c2C#N)C1 (centres undefined),1.5%
CCc1nnc(SC(CC)C(=O)NCCOC)c2cc3occc3n12 (centres undefined),-5.4%
COc1ccc(-c2nc(CNS(=O)(=O)c3ccccc3)cs2)cc1,-6.7%
COc1ccc(C(=O)c2c(N)c(-c3nc(-c4ccc(OC)cc4)cs3)c3ccccn23)cc1,-22%
Cc1ccc2c(c1)CC(C)N2S(=O)(=O)c1nnc(NC(=O)c2ccccc2F)s1 (centres undefined),0.0%
CC(NC(=O)c1cc2sccc2n1Cc1ccc(F)cc1)c1ccccc1 (centres undefined),-0.5%
Cc1ccc(C(=O)Nc2ccc(-c3cn4cccnc4n3)cc2)cc1C,4.4%
O=C(C[N+]1(c2ccccc2)CCOCC1)c1ccccc1,-4.4%
COc1cc2c(C(=O)Nc3ccc(C)cc3Br)cn(C)c(=O)c2cc1OC,-11%
CCCOc1cccc(C(=O)Nc2cc(-c3nc4ccccc4[nH]3)ccc2C)c1,-29%

# Filtered by structure, those above containing two or more sulfur atoms (six)
SMILES,ClpP mod
COc1ccc(S(=O)(=O)NCCc2sc(-c3cccc(C)c3)nc2C)cc1,4.2%
O=S(=O)(NCCc1nnc2ccc(SCc3ccc(Cl)cc3Cl)nn12)c1ccccc1,0.4%
Cc1ccccc1CSc1ccc(-c2cccs2)nn1,-4.9%
Cc1ccc(C(=O)Nc2nnc(S(=O)(=O)N3CCCc4ccccc43)s2)cc1,-1.7%
COc1ccc(-c2nc(CNS(=O)(=O)c3ccccc3)cs2)cc1,-6.7%
Cc1ccc2c(c1)CC(C)N2S(=O)(=O)c1nnc(NC(=O)c2ccccc2F)s1 (centres undefined),0.0%

# New compounds follow
SMILES,ClpP mod
CCOC(=O)c1c(NC(C)=O)c2c3c(sc2n1Cc1cc(C)ccc1C)CCCC3,-1.9%
COc1cccc(C(=O)NC2(C(F)(F)F)C(=O)Nc3c2c(=O)[nH]c(=O)n3-c2ccc(C)cc2)c1 (centres undefined),-1.0%
COc1ccccc1-c1noc(-c2ccc(N3CCN(C)CC3)c([N+](=O)[O-])c2)n1,0.8%
Cc1ccc(CNc2ncccc2-c2nc(-c3ccc(Cl)cc3)no2)cc1,?
Cn1c(=O)oc2cc(S(=O)(=O)NC(Cc3ccccc3)C(=O)NCc3ccc(F)cc3)ccc21 (centres undefined),-0.6%
Cc1ccc(C)c(-c2ccc(=O)n(C(C)C(=O)Nc3ccccc3C(F)(F)F)n2)c1 (centres undefined),-0.8%
CNC(=O)c1c(NC(=O)c2ccc(S(=O)(=O)N3CCC(C)CC3)cc2)sc2c1CCC2,0.1%
COc1cccc(CNC(=O)C2CCCN(c3nnc(-n4c(C)ccc4C)s3)C2)c1OC (centres undefined),-0.5%
Cn1c(=O)c2c(-c3ccc(Br)cc3)n(Cc3ccc(F)cc3)cc2n(C)c1=O,4.0%
Cc1cccc(-n2ncc3c(N4CCCC(C)C4)ncnc32)c1 (centres undefined),-12%

# Four compounds picked at random from the list so far:
SMILES,ClpP mod
Cn1c(=O)oc2cc(S(=O)(=O)NC(Cc3ccccc3)C(=O)NCc3ccc(F)cc3)ccc21 (centres undefined),-0.6%
CCOC(=O)c1c(NC(C)=O)c2c3c(sc2n1Cc1cc(C)ccc1C)CCCC3,-1.9%
COc1ccccc1-c1noc(-c2ccc(N3CCN(C)CC3)c([N+](=O)[O-])c2)n1,0.8%
Cc1cccc(-n2ncc3c(N4CCCC(C)C4)ncnc32)c1 (centres undefined),-12%

# (listing goes on)
SMILES,ClpP mod
Cc1cccc(C)c1-n1ncc(C(=O)O)c1C1CCN(C(=O)OC(C)(C)C)CC1,-1.0%
Cc1ccc(NC(=O)Cn2c(=O)n(CCc3ccccc3)c(=O)c3c4c(sc32)CCCC4)c(C)c1,0.2%
Cc1cc(C)cc(-n2ccnc2SCC(=O)Nc2nnc(C)s2)c1,-0.2%
COC(=O)c1ccccc1NC(=O)c1cc2nc(-c3ccccc3)cc(-c3ccccc3)n2n1,-9.6%
COc1cccc(C(=O)NC(=NCCc2c[nH]c3ccc(OC)cc23)Nc2nc(C)cc(C)n2)c1,-6.9%
COc1cc(/C=C2/C=Cc3ccccc32)ccc1N(C)C,2.8%
O=C(NCCc1ccccc1)c1ccc2c(c1)N(Cc1ccc(F)cc1)C(=O)CS2,-1.0%
CCC(C)NC(=O)Cn1c(=O)n(-c2ccc(Cl)c(Cl)c2)c(=O)c2c(C)c(C(=O)N(CC)CC)sc21 (centres undefined),0.3%
CCC(c1nnnn1-c1ccc2c(c1)OCCO2)N1CCN(c2ccccn2)CC1 (centres undefined),-3.3%
COc1ccc2oc(=O)c(C(=O)NCCc3c(C)[nH]c4c(C)cccc34)cc2c1,6.4%
Cc1ccc(C2Nc3ccccc3-n3c(-c4ccccc4)c4c(=O)n(C)c(=O)n(C)c4c32)o1 (centres undefined),4.2%
Cc1[nH]c2ccccc2c1C1(O)C(=O)N(Cc2ccccc2)c2ccc(Cl)cc21 (centres undefined),-2.2%
CSc1ccc(C2c3c(oc4cc(C)cc(C)c4c3=O)C(=O)N2CCO)cc1 (centres undefined),1.3%
CCOc1ccc(N2CC(NC(=O)c3ccc(S(=O)(=O)N4CCOCC4)cc3)CC2=O)cc1 (centres undefined),1.9%
Cc1ccc2[nH]c3c(=O)n(CC(=O)Nc4ccc(Br)cc4C)ncc3c2c1,-14%
O=c1oc2c3c(ccc2c2ccccc12)OCN(Cc1cccc(Cl)c1)C3,-3.4%
O=C(CCCn1c(=O)c2cccn2c2ccc(F)cc21)NCc1ccc(Cl)cc1,-19%
Cc1csc2nc(COc3ccccc3NC(=O)c3ccccc3Cl)cc(=O)n12,0.6%
Cc1ccc(Cl)cc1NC(=O)Cn1c(=O)cc(C)c2c(C)nn(C)c21,-2.0%
CCN1CCN(c2cc(C)c3cc(NC(=O)c4cccc(C(F)(F)F)c4)ccc3n2)CC1,52%
CCOc1ccc(NC(=O)CN(Cc2ccccc2)S(=O)(=O)c2ccc(Cl)cc2)cc1,-1.9%
CCCCCCCCN1C(=O)[C@H](CC(=O)NCCc2ccccc2OC)C[C@@]2(C(=O)OCC)CCCC=C12,0.6%
Cc1nc(N2CCOCC2)c2c(C(=O)N3CCN(c4cccc(C)c4C)CC3)c(C)oc2n1,-15%
O=C(C1CC1)N1CCc2cc(Br)cc(S(=O)(=O)Nc3ccc(F)c(F)c3)c21,0.8%
CC(=O)c1ccc(NC(=O)Cn2c(-n3nc(C)cc3C)nc(C)c(C)c2=O)cc1,24%
CCOc1ccc(CCN2C(=O)C(=O)N([C@@H](Cc3ccc(O)cc3)CN3CCC[C@H]3CN3C(=O)C(=O)NC[C@@H]3Cc3ccccc3)C[C@@H]2Cc2ccc(O)cc2)cc1,-2.0%
Cc1cc(C)cc(NC(=O)Cn2nnc(-c3nc(-c4ccncc4)no3)c2N)c1,10.0%
COc1cccc2cc(C(=O)N3CCN(c4cc(C)ccc4C)CC3)c(=O)oc12,-0.3%
COc1ccc(Cl)cc1NC(=O)c1c(NCc2ccc(C)o2)sc2c1CCCCC2,1.0%
CC(C)CCNC(=O)c1ccc2c(c1)nc1n2CCCCC1,0.9%
CCOC(=O)C1CCN(c2ncnc3c2c(-c2ccccc2)cn3-c2ccc(Cl)cc2)CC1,-3.6%
COc1ccc(NC(=O)C(c2ccccc2F)n2c(=O)c(-c3ccco3)nc3ccccc32)cc1 (centres undefined),-2.7%
O=C(Nc1ccccc1)N1CCN(C(=O)c2nsc3ccccc23)CC1,-1.0%
Cc1ccc(OCC(=O)Nc2ccc3nc(Nc4cccc(Cl)c4)cc(C)c3c2)cc1,0.1%
CCC12CN3CC(CC)(CN(C1)C3c1c[nH]c3ccccc13)C2=O (centres undefined),-0.9%
COc1cccc(-c2nn3c(=O)cc(CN4CCN(S(=O)(=O)c5ccc(C)cc5)CC4)nc3s2)c1,0.0%
Cn1c2ccccc2c2c(C(=O)N3CCN(c4cccc(Cl)c4)CC3)cn(C3CCCCC3)c(=O)c21,?
CC(=O)N1CCCc2ccc(NC(=O)c3ccc(C(F)(F)F)cc3)cc21,-12%
CCc1c(C)nc2nncn2c1NCc1ccc(Cl)cc1,1.6%
Nc1[nH]c(C(=O)c2ccccc2)c(-c2ccc(F)cc2)c1C(=O)NCCc1c[nH]c2ccccc12,-3.9%
CCC(C(=O)Nc1cc(C)ccc1C)n1c(=O)c(C(F)(F)F)nc2ccccc21 (centres undefined),-5.1%
Cc1ccc(CNC(=O)CCn2cnc3ccccc3c2=O)cc1,-0.8%
Cc1cc(C(=O)N2CCN(c3cccc(Cl)c3)CC2)c2c(C)nn(-c3ccccc3Cl)c2n1,-3.2%
Cc1cc(S(=O)(=O)Nc2ccc(C(=O)O)cc2)c(C)c(S(=O)(=O)c2ccc(Cl)cc2)c1,-4.3%
O=C1NC[C@@H](CCCCN2CCN(CCC3CCCCC3)C(=O)C2=O)N(Cc2ccccc2)C1=O,-0.2%
CC1(C(=O)NCc2ccccc2)CN(S(C)(=O)=O)CC(=O)N1Cc1cccc(C(F)(F)F)c1 (centres undefined),-2.0%
C=C1C=C(C(F)F)n2ncc(C(=O)N3CCN(c4ccccn4)CC3)c2N1,0.1%
CC(=O)c1ccc(N2C(=O)N(Cc3ccccc3C#N)c3ccccc3S2(=O)=O)cc1,-0.3%
Cc1ccc(C)c(Nc2nn3c(=O)c4ccc(C(=O)NCCc5ccccc5)cc4nc3s2)c1,0.3%
COc1ccc(C)cc1NC(=O)C1CCN(S(=O)(=O)c2ccc3[nH]c(=O)oc3c2)CC1,1.1%
# Carrying on:
SMILES,ClpP mod
Cc1ccc(CNC(=O)CCc2c(C)nc3nc(CNC(=O)OC(C)(C)C)nn3c2C)cc1,-0.3%
CN(C)c1ccc(CNC(=O)CN2C(=O)CSc3ccc(S(=O)(=O)N4CCCC4)cc32)cc1,-1.2%
COc1ccc(Cn2c(CNS(=O)(=O)c3ccc(C)c(C)c3)nc3cccnc32)cc1,-4.0%
CCOc1ccc(C(=O)Nc2ccc3c(c2)N(C(C)=O)CCC3)cc1OCC,1.0%
Cc1cc2nc(-c3ccccc3)c(Cc3cccc(Cl)c3)n2c(C)c1Br,-1.4%
Cc1ccc(NC(=O)CSc2nc(=O)n(Cc3ccncc3)c3c2CCC3)cc1Cl,0.8%
O=Cc1ccc(N2CCOCC2)cc1,-2.7%
COc1ccc(NC(=O)CSc2nncn3c2cc2oc(C)cc23)cc1OC,-12%
CC(=O)c1ccc(NC(=O)C2CCCN(S(=O)(=O)c3ccc4c(c3)CCCN4C(C)=O)C2)cc1 (centres undefined),0.0%
CCCN1CCN(c2ncnc3sc(C(=O)Nc4c(C)cc(C)cc4C)c(C)c23)CC1,-0.6%
COc1cc2nc(N3CCCCC3)nc(NC3CC3)c2cc1OC,4.0%
COc1cccc(NC(=O)C2CCC(CNS(=O)(=O)c3ccc4c(c3)CCCC(=O)N4)CC2)c1 (centres undefined),-3.1%
COc1ccc(C2Nc3ccccc3C(=O)N2Cc2ccccc2)cc1COc1ccc([N+](=O)[O-])c(C)c1 (centres undefined),-5.5%
Cc1cc(C)cc(N(CC(=O)Nc2c(C)cc(C)cc2C)S(=O)(=O)c2c(C)nn(C)c2C)c1,0.6%
CCN(CC)C(=O)c1sc2c(c1C)c(=O)n(-c1ccccc1)c(=O)n2Cc1c(C)cc(C)cc1C,-0.4%
COc1cccc(CN2CCc3nc(Nc4ccc5c(c4)OCCO5)ncc3C2)c1OC,-0.7%
CCOC(=O)[C@]12CCC=C1N(Cc1ccc(Cl)cc1Cl)C(=O)[C@H](CC(=O)NCc1ccc(OC)c(OC)c1)C2,-0.5%
